UCH37 inh = human UCH37 deubiquitinating enzyme inhibition. Q9Y5K5. AID 588478. purified proteasome/UCH37, Ub-AMC cleavage fluorescence. inhibition, % (test concentration not listed). hit rate 0.33% among 330,000;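 active means mean of two replicates above 20%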;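 further: 0% = compound-free wells with enzyme and 100% = wells lacking proteasome; stock transfer was 100 nL into about 20 µL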
Target sequence (Q9Y5K5 whole entry, looked up): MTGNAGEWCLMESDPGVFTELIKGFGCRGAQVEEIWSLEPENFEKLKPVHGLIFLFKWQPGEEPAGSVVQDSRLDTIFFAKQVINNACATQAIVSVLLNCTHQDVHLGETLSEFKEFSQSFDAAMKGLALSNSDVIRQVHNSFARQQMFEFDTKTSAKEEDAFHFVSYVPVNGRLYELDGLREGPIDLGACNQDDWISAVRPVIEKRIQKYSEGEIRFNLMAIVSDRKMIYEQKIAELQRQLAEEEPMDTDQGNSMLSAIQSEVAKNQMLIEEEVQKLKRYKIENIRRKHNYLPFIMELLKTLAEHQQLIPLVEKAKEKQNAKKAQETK
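System: Proteasome-associated human UCH37 deubiquitinase; Input: 0.15 nM proteasome in added enzyme buffer; Also added: Ub-AMC substrate from 1 µM stock; Incubation: 30 min compound-proteasome preincubation then 25 min substrate reaction, room temperature; Detection: fluorescence, ex 355 nm, em 460 nm; Read-out: % inhibition of Ub-AMC cleavage fluorescence; Benchmarks: no-proteasome and no-compound wells.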
T cruzi inh = T. cruzi replication inhibition; T. cruzi beta-gal in NIH3T3, luminescence, 90 h; inhibition, % (no concentration beside the values); hit rate 1.4% among 300,000; AID 1885;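 active means mean inhibition across valid replicates above about 55%, limit read from the data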;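 further: signal also drops with host cell toxicity which is not excluded here; 0% = plate median of DMSO wells and 100% = zero luminescence signal; higher percent means less beta-gal luminescence so fewer parasites; stock transfer was 50 nL into about 50 µL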
MLL AF4-AF9 inh = MLL-AF4/AF9 protein interaction inhibition; P42568; AlphaScreen, biotin-AF4 peptide binding to FLAG-AF9; inhibition, % at 10 µM; hit rate 0.47% among 350,000; AID 651704;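 active means every replicate reaching a set inhibition limit, whatever the replicate mean, cut at about 25% in these data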;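 further: 0% = plate neutral control median and 100% = total signal loss; the record names both 10 and 1 µM as test concentration; the first replicate is given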
Target sequence (P42568 whole entry, looked up): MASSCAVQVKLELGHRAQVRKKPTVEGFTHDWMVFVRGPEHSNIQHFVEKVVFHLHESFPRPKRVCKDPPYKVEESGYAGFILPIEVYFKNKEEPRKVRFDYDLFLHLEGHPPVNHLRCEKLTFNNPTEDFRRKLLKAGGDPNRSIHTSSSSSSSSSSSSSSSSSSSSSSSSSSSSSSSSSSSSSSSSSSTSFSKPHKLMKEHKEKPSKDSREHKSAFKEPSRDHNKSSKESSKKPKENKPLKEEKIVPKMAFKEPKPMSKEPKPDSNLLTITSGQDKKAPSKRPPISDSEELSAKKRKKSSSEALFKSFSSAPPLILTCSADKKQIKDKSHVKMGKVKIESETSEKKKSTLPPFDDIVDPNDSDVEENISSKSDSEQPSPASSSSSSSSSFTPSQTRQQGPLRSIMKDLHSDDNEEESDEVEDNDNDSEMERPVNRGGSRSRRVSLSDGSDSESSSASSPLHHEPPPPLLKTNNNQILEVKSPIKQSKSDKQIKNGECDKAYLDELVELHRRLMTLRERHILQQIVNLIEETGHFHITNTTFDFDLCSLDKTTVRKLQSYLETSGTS
Ecoli growth = E. coli growth inhibition. Escherichia coli growth, OD600, 23 h; hits give low values. OD600 absorbance (no concentration beside the values). hit rate 0.21% among 330,000;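 active means OD600 absorbance below the run mean of sample wells minus 3.6 SD, in any replicate, cut at about 0.56 in these data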;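 further: stock transfer was 300 nL into about 60 µL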
FGF22 binding = shifts melting point of recombinant human FGF22; Q9HCT0; recombinant FGF22 thermal shift, SYPRO orange fluorescence; percent of sucrose octasulfate shift, DMSO zero; calls only at 9.99 µM; hit rate 1.5% among 340,000; AID 651658;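 active means melting point raised past a set limit in the mean and every replicate; three in four hits are not shown here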
Target sequence (Q9HCT0 whole entry, looked up): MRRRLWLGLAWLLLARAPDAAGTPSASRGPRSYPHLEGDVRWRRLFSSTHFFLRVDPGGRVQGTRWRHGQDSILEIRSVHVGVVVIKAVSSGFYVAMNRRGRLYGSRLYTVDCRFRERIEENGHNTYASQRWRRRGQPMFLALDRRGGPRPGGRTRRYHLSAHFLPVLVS
A1 inh = inhibitors of the anti-apoptotic protein A1, read as caspase activation; hit rate 0.066% among 330,000; MEF A1-2A-BIM cells, Caspase-Glo 3/7 luminescence, 3 h; percent of clofoctol response, vehicle zero; caspase activation, % (concentration not given with the values);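 active means over half of replicate activation scores above 10%, or exactly half above 10 with the replicate mean above 10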;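 further: wells of about 30 µL received 50 nL stock; many hits fall short of the cut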
Ecoli rRNA inh = selective bacterial rRNA inhibition in E. coli; E. coli WT GFP vs humanized-ribosome RFP mutants, fluorescence, 24 h; hits give low values; DMSO median 0, no signal -100; hit rate 1.6% among 350,000; AID 720706; GFP signal change (wild-type ribosome), % (concentration not given with the values);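 active means significant combined selectivity score with lowered wild-type GFP, culture density cut under 30%, mutant RFP and density less affected; inactive means any of these conditions unmet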; further: one replicate is shown; some compounds called inactive have numbers as strong as hits
Beta apoptosis = beta cell apoptosis inhibition | INS-1E cytokine-induced death, ATP luminescence, 48 h; percent of positive-control rescue, neutral wells zero | protection from apoptosis, % (no concentration beside the values) | hit rate 0.8% among 300,000 | AID 435005;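 active means all replicates at 75% or more, or half of them and the mean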;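 further: 0% = cytokine-treated negative control wells and 100% = positive control rescue; higher means more ATP so stronger rescue from cytokine killing; wells of about 40 µL received 100 nL stock; the first replicate is given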
Ecoli rRNA inh OD600 = further read-out of Ecoli rRNA inh, marked with its call; OD600 change, %; measured here: OD600 growth;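 optical density of the mix in the first replicate; 0 = DMSO median and -100 = no signal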
Ecoli rRNA inh RFP = recorded beside Ecoli rRNA inh, whose call it bears; RFP signal change, %; measured here: RFP humanized mutant strains;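 first replicate; 0 = DMSO median and -100 = no signal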
The depositor's hits bear a star; i = inactive; / = no result given; & = joins results of further samples. Some of the compounds tested; the hit share may differ from the screen's.

SMILES	UCH37 inh	T cruzi inh	MLL AF4-AF9 inh	Ecoli growth	FGF22 binding	A1 inh	Ecoli rRNA inh	Ecoli rRNA inh OD600	Ecoli rRNA inh RFP	Beta apoptosis
CCCCOc1ccc(C(O)C(CN2CCCCC2)c2ccccc2)cc1 (centres undefined)	4.4	13	4.2	0.71	i	0.2	-16	-27	-0.4	4
Cc1c(NCc2cccnc2)cccc1C(=O)O	3.4	6	-1.2	0.68	i	0.7	5	10	-1.6	-3
O=C(NCc1ccco1)c1ccc(COc2cc(Cl)ccc2Cl)cc1	7.8	-5	/	0.71	/	-0.9	/	/	/	0
O=C(O)C[C@@H](CNC(=O)COc1ccc2ccc(=O)oc2c1)c1ccc(Cl)cc1	-27	-11	-1.3	0.71	i	1.0	17	13	3.1	-6
COCCCNC(=O)CCS(=O)(=O)Cc1ccc(C)cc1	0.4	-7	/	0.7	/	-0.3	/	/	/	-19
COc1ccc(OCCOC(=O)CCS(=O)(=O)c2ccc(C)cc2)cc1	0.1	-6	-4.7	0.63	i	0.7	0	1	0.4	-4
O=C(c1ccccc1F)N1CCN(c2cccc(C(F)(F)F)c2)CC1	-1.1	29	/	0.67	/	0.0	/	/	/	0
C#CCN1C(=O)C(O)(CC(=O)c2cccc(OC)c2)c2ccccc21 (centres undefined)	4.0	-11	/	0.71	/	-0.6	/	/	/	-14
CCc1ccccc1NC(=O)c1ccccc1N1C(=O)C2C3C=CC(C3)C2C1=O (centres undefined)	2.6	9	-0.7	0.72	i	0.1	15	9	3.4	-4
COc1ccccc1NC(=S)N1CCN(c2cccc(C)c2C)CC1	3.2	20	2.7	0.69	i	0.2	-27	-17	-4.8	9
CC(=O)c1cccc(NC(=S)NCCCCc2ccccc2)c1	4.1	10	3.0	0.63	i	0.8	-34*	-20*	4.6*	-1
COc1ccccc1N1C(=O)CC(Sc2n[nH]c(-c3cccc(C)c3)n2)C1=O (centres undefined)	5.1	4	/	0.73	/	0.5	/	/	/	1
Cc1ccccc1N(CC(=O)NC1CCCC1)C(=O)C1(C)CC(=O)N=C2C=CC(Cl)=CN21 (centres undefined)	i	-4	0.0	0.67	i	0.2	3	8	0.4	1
C[C@H](NC(=O)c1ccccc1)C(=O)OCC(=O)Nc1sccc1C(N)=O	-1.8	/	-0.8	0.71	i	-1.1	2	12	0.8	1
BrC(/C=C\c1ccccc1)=N/Nc1nc(N2CCOCC2)nc(N2CCOCC2)n1	/	-40	0.2	/	i	0.4	3	2	-0.6	-5
Cc1ccc(C)c(OCC(O)CN2CCC(Cc3ccccc3)CC2)c1 (centres undefined)	0.3	30	1.9	0.65	i	-0.4	-37	-62	11	3
CSc1nc(C)c2c(n1)N(c1ccc(C(C)C)cc1)CC2	-7.6	34	/	0.78	/	-0.3	/	/	/	1
C/C(=N\Nc1ccc(S(=O)(=O)Nc2ccccc2)cc1[N+](=O)[O-])c1ccncc1	/	46	/	/	i	-0.1	24	8	2.1	8
O=C(N/C(=C/c1ccccc1)C(=O)N1CCCCCC1)c1ccccc1	3.7	-17	1.1	0.69	i	0.6	7	2	1.8	-6
CCN(CC)S(=O)(=O)c1ccc(-c2cc(C(=O)OC)sc2C(F)(F)F)cc1	0.9	-5	1.6	0.7	i	-0.2	-14	-8	0.0	-5
CCC(C)N(C(=O)COC(=O)Cc1n[nH]c(=O)c2ccccc12)C1CCS(=O)(=O)C1 (centres undefined)	1.8	5	/	0.64	/	-0.1	/	/	/	7
O=C(O)c1cccc(NC(=O)c2ccccc2NC(=O)c2ccco2)c1	0.7	-10	-4.2	0.73	i	0.7	/	/	/	-1
Cc1cc(C)c(S(=O)(=O)Nc2cc(C)on2)c(C)c1	0.2	-3	-1.9	0.7	i	0.3	/	/	/	/
CCOC(=O)C1CCN(C(C)=C2C(=O)c3ccccc3C2=O)CC1	12	1	/	0.71	/	1.0	/	/	/	-9
COc1ccc(-c2cccc(C(=O)Nc3ccc(OC)c(OC)c3)c2)cc1	-0.1	11	/	0.68	/	0.2	/	/	/	0
O=C(NC1CCOCC1)C1CCC(=O)N(Cc2cccc(C(F)(F)F)c2)C1 (centres undefined)	0.9	-20	0.8	0.65	i	0.1	3	0	-1.7	-4
C=CCOc1ccc(CNc2ccc3[nH]c(=O)[nH]c3c2)cc1OC	-0.1	/	-0.4	0.71	i	/	8	12	3.6	/
O=C(CS(=O)(=O)c1ccccc1)c1cc2cc(F)ccc2oc1=O	0.1	-15	/	0.71	/	-0.1	/	/	/	-6
CCOc1ccccc1NC(=O)COc1coc(CN2CCc3ccccc3C2)cc1=O	-1.7	3	2.5	0.71	i	-0.8	-4	-5	2.3	/
COC(=O)c1cc(Cl)cc(Cl)c1OS(=O)(=O)N(C)C	4.0	-7	-3.2	0.72	i	-0.2	-8	-12	-1.5	-32
Cn1c(SCC(=O)NC2CCCCCC2)nnc1-c1ccco1	0.8	6	-6.8	0.68	i	-1.1	9	13	0.7	-3
CCOc1ccc(N2CC(C(=O)N3CCCCCC3)CC2=O)cc1 (centres undefined)	2.1	1	1.7	0.71	i	-0.9	3	-1	-0.4	1
CC(C)Oc1cccc(C(=O)C2CCCN(S(C)(=O)=O)C2)c1 (centres undefined)	-1.8	0	1.2	0.63	i	2.5	9	2	3.2	-9
CC(/C=C/c1ccc(O)cc1)=NNc1ccccc1	11	/	3.6	0.68	i	/	-21*	2.3*	6.0*	/
CCN1CCN(c2ccc(NC(=O)c3ccco3)cc2)CC1	1.5	10	-1.5	0.72	i	0.4	8	8	2.5	-1
CCN1CCCC1CNC(=O)C1c2cc(OC)c(OC)cc2C(=O)N(C)C1c1cccnc1 (centres undefined)	-1.3	-8	/	0.69	/	0.2	/	/	/	-5

Two of these compounds in a different format:
Compound,UCH37 inh,T cruzi inh,MLL AF4-AF9 inh,Ecoli growth,FGF22 binding,A1 inh,Ecoli rRNA inh,Ecoli rRNA inh OD600,Ecoli rRNA inh RFP,Beta apoptosis
COc1ccccc1N1C(=O)CC(Sc2n[nH]c(-c3cccc(C)c3)n2)C1=O (centres undefined),5.1,4,/,0.73,/,0.5,/,/,/,1
Cc1ccccc1N(CC(=O)NC1CCCC1)C(=O)C1(C)CC(=O)N=C2C=CC(Cl)=CN21 (centres undefined),i,-4,0.0,0.67,i,0.2,3,8,0.4,1

Remaining list, next part:
SMILES	UCH37 inh	T cruzi inh	MLL AF4-AF9 inh	Ecoli growth	FGF22 binding	A1 inh	Ecoli rRNA inh	Ecoli rRNA inh OD600	Ecoli rRNA inh RFP	Beta apoptosis
c1ccc(Nc2nc(CSc3ncn[nH]3)cs2)cc1	1.0	6	0.2	0.6	/	0.6	-12	-10	-0.2	0
CCN1CCN(Cc2ccc(NC(=O)c3ccc(C)c(NC(=O)C4=NN(c5ccccc5)C(=O)C4)c3)cc2C(F)(F)F)CC1	2.3	6	0.3&-0.7	0.65	i	-0.2	-6&5	8&21	65&25	-5
CCOC(=O)c1ccc(NC(=O)Cc2coc3cc4c(cc23)CCC4)cc1	-2.0	54	-0.3	0.68	i	-0.1	-8	-23	16	-2
Cc1ccccc1OCCNc1cc(N2CCCCC2)ccc1[N+](=O)[O-]	2.3	24	/	0.79	/	2.0	/	/	/	49
COc1ccc(C)cc1S(=O)(=O)NCCc1ccccc1	0.8	5	/	0.66	/	0.5	/	/	/	-7
NC1=NC(=O)CC(C(=O)NCc2ccccc2)S1 (centres undefined)	-1.0	-1	/	0.72	/	0.4	/	/	/	-2
CCOc1ccc(N=NC2C(=O)N(C(N)=S)N=C2C)cc1 (centres undefined)	6.2	3	-2.2	0.71	i	-8.6	7	11	0.3	18
Cc1cc(OC(=O)c2c(Cl)cc(Cl)cc2Cl)nc(C)n1	0.2	-12	/	0.66	/	0.9	/	/	/	-17
COc1cccc(NC(=O)CCC2CCN(C(=O)c3ccc(C(C)=O)s3)CC2)c1	0.3	2	1.8	0.72	i	1.7	6	6	6.4	-5
Cc1cccc(OCC(=O)OCC(=O)Nc2sccc2C(N)=O)c1	3.2	/	-2.1	0.64	i	-1.5	-4	-3	0.0	-4
Cc1c(C)c2c(OCC(=O)NCc3ccco3)cc3c(c2oc1=O)CCC(C)(C)O3	-146	6	-2.1	0.75	i	0.0	/	/	/	11
c1ccc2[nH]c(C3CC3)nc2c1	-0.5	-15	-2.2	0.66	i	-0.3	-8	-13	0.3	-5
O=c1[nH]c2ccc(Cl)cc2c(-c2ccccc2)c1N1CCN(c2ccccn2)CC1	-10	49	5.2	0.64	i	1.3	8	8	3.7	-7
COc1ccc(NC(=O)c2cccc(OS(=O)(=O)N(C)C)c2)cc1	7.4	-34	-7.7	0.71	i	-5.4	4	3	0.7	4
CCC(C)[C@@H](C(=O)N1CCNCC1)n1cc(CCCN=C(N)N)nn1 (some centres undefined)	1.5	-24	0.9	/	i	-0.5	17	20	-5.1	-5
CN(CC(=O)N1CCN(c2ccccn2)CC1)S(=O)(=O)c1ccc(Cl)cc1	3.2	13	-3.9	0.67	i	-0.3	-6	-9	-1.6	3
Cc1ccccc1C(=O)c1cccn1CC(=O)N1CCCCC1	6.5	-10	-0.7	0.69	i	0.5	14	6	3.0	5
CCCOc1ccc(NCC(=O)Nc2ccc(C)cc2C)cc1	2.4	76*	/	0.72	/	0.8	/	/	/	3
CCOc1ccccc1N(CC(=O)Nc1cc(OC)ccc1OC)S(C)(=O)=O	2.5	-8	/	0.68	/	0.9	/	/	/	1
CCCN=Cc1sc2ccc(OCC)cc2c1O	-15	-1	/	0.61	/	0.6	/	/	/	-15
O=S(=O)(c1cccc(S(=O)(=O)N2CCOCC2)c1)N1CCCCC1	0.9	7	/	0.71	/	-0.5	/	/	/	-8
COc1ccc(CCNS(=O)(=O)c2cn(C)nc2C)cc1	/	-16	0.8	/	i	-0.8	1	2	-1.2	-4
CC1CCN(C(=O)c2ccc([N+](=O)[O-])o2)CC1	2.9	48	-2.6	0.58	i	-0.4	-10	3	-4.0	-5
COc1ccc(NN=Nc2nc3c([nH]2)c(=O)n(C)c(=O)n3C)cc1	-2.0	-8	-2.6	0.65	i	0.2	9	6	-2.0	-13
COc1ccc(CNC(=O)CCCOc2cc(=O)n(C)c3ccccc23)cc1	2.6	19	/	0.69	/	-0.1	/	/	/	-5
CCn1c(CNC(=O)Cc2ccc(OC)cc2)nnc1SCC(=O)NC1CCCCC1	2.4	-1	/	0.68	/	-0.3	/	/	/	4
O=C1N[C@@H](c2ccccc2)COC(=O)[C@@H](Cc2ccc(F)cc2)C/C=C\C[C@H]1CC(=O)N(CCO)Cc1ccccc1	-2.1	/	-3.3	/	i	0.4	-7	-20	2.1	4
CN(C)c1ccc(C(CNS(=O)(=O)c2ccc(F)c(F)c2)c2c[nH]c3ccccc23)cc1 (centres undefined)	5.7	5	/	0.67	/	0.2	/	/	/	1
O=C(/C=C/c1cccc([N+](=O)[O-])c1)NCCSCc1ccc(Cl)cc1Cl	2.4	13	/	0.7	/	-0.5	/	/	/	3
OCCN1CCN(c2ncnc3sc(-c4ccccc4)cc23)CC1	-1.9	62*	0.9	0.65	i	1.8	-38	-45	-13	8
C=CCOc1ccccc1C(=O)/C=C1/C(=O)Nc2ccccc21	2.9	1	-0.2	0.68	i	0.3	-1	-10	-1.2	-4
Cc1c(C(=O)OCC2CCCO2)[nH]c2c1C(=O)CC(c1ccco1)C2 (centres undefined)	4.5	-6	/	0.78	/	0.2	/	/	/	3

High-throughput results: PubChem, several laboratories
